Screens deposited in PubChem by several laboratories.
ugtP null kill = growth inhibition of ugtP-null S. aureus, primary screen, RN4220 ugtP deletion, OD600; 330,000 tested, 0.54% active; growth inhibition, % (test concentration not listed); AID 1259309, 2017; 16 h; some inactives read as strong as hits;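 active = z-score under -3 and OD600 up to 0.15 on both plates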;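 note: plate controls were untreated wells for no effect and antibiotic for full effect; wells of about 80 µL received 100 nL stock; the first replicate is given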
RN4220 kill = growth inhibition of S. aureus RN4220, primary screen, OD600; 16 h; inhibition, % (test concentration not listed); 330,000 tested, 0.33% active;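 active = z-score of -3 or lower and OD600 up to 0.18 on both plates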;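 note: plate controls were untreated cells for no effect and reference antibiotic for full effect; stock transfer was 100 nL into about 80 µL; one replicate is shown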
PrP 5UTR inh = inhibition of PrP 5' UTR reporter expression. cell-based PrP 5' UTR mRNA reporter, plate reader. inhibition, % (no concentration beside the values). 340,000 tested, 0.35% active;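 active = every replicate at 50% or more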;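 note: 0 = median of the neutral control wells; tested in H4 reporter cells; numbers are from one replicate; inactives centre near -14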
Autofluor counter = counter-screen for toxin protease inhibitors: compound fluorescence. compound autofluorescence counterscreen, microsphere flow cytometry; stronger effect = higher value. fluorescence intensity (no concentration beside the values). 360,000 tested, 3.1% active. AID 624483;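 active = at least 3 SD above the mean of all compounds, about 16000 in these data; inconclusive = too few beads counted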;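 note: 100 nL of 1 mM stock went into each well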
BJeLR lethal = MLPCN primary cell-based screen for lethality selective to Ras in HRASV12 cells; 300,000 tested, 0.17% active; inhibition, % (no concentration beside the values); BJeLR (HRASV12) viability, CellTiter-Glo ATP luminescence, 48 h; reference of the scale not given here;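 active = replicate mean above 50%; inconclusive = above 50% but judged a plate artefact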;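 note: 50 nL library stock added to about 25 µL; numbers are from one replicate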
Mtb hypoxia rep = PubChem AID 1159583; M. tuberculosis hypoxia-regulated fluorescent reporter, fluorescence; fluorescence inhibition, % (test concentration not listed); 300,000 tested, 0.1% active;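 active = 35 to 45% if threefold the growth effect, above 45% if 1.5-fold the growth effect; inactive = the rest, general growth blockers included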;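 note: wells of about 50 µL received 100 nL stock; 0% = vehicle wells and 100% = reference inhibitor wells; whole bacteria with a GFP reporter of the hypoxia response; strong numbers were not always called active; many hits fall short of the cut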
Mtb hypoxia rep growth = further read-out of Mtb hypoxia rep, marked with its call; growth inhibition, %; measured here: M. tuberculosis growth (absorbance);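 0% = vehicle and 100% = reference antibiotic; read after six days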
Numbers without * were called inactive; ? = inconclusive; / = not tested or not shown.

SMILES	ugtP null kill	RN4220 kill	PrP 5UTR inh	Autofluor counter	BJeLR lethal	Mtb hypoxia rep	Mtb hypoxia rep growth
Cc1ccc(-c2nn(CC(=O)NCC3CCCO3)c(=O)c3ccccc23)cc1 (stereo not given)	-3	3.2	1	23922*	6	4	7
CCOC(=O)C1(Cc2cccc(F)c2)CCN(C(=O)c2cnccn2)CC1	5	4.5	-5	2915	-6	2	-1
Cc1c(CCO)c(=O)[nH]n1S(=O)(=O)c1ccc(F)cc1	4	0.3	-12	4928	6	-6	4
Cc1cccc(NC(=O)c2cc([N+](=O)[O-])ccc2N2CCCCC2)n1	4	-3.5	-7	4138	1	11	4
Cn1c(=O)c2c(ncn2CC(=O)OCC(=O)c2ccc(F)c(F)c2)n(C)c1=O	0	0.6	-14	5487	-1	-1	6
CCC(=O)NS(=O)(=O)c1cccnc1Nc1ccc(Cl)cc1	-4	4.5	-9	2135	5	/	/
O=S(=O)(NCc1ccc2c(c1)OCO2)c1cnc[nH]1	-1	-8.1	-17	5485	-9	11	11
CCCn1cc(CN2CCC(Oc3ccc(C(=O)N4CCCC4)cc3)CC2)c(C)n1	2	0.8	-11	6260	-8	12	4
O=C(NN=Cc1sc(=O)[nH]c1-[n+]1ccccc1)c1ccccc1[O-]	-3	3.9	/	/	/	0	-2
COc1ccc(S(=O)(=O)N(C)C)cc1NC(=O)Cc1cccs1	-65	-1.9	-11	4509	-2	15	1
CC(C)c1onc(C(=O)Nc2ccc3c(c2)OCO3)c1[N+](=O)[O-]	6	15	-5	5088	2	-5	-3
CCN(CC)C(=O)C1CCCN(C(=O)c2cc(COc3ccc4ncccc4c3)on2)C1 (stereo not given)	9	1.2	-1	5975	6	8	6

The last five records of the section above are carried over, then new ones follow.
SMILES	ugtP null kill	RN4220 kill	PrP 5UTR inh	Autofluor counter	BJeLR lethal	Mtb hypoxia rep	Mtb hypoxia rep growth
CCCn1cc(CN2CCC(Oc3ccc(C(=O)N4CCCC4)cc3)CC2)c(C)n1	2	0.8	-11	6260	-8	12	4
O=C(NN=Cc1sc(=O)[nH]c1-[n+]1ccccc1)c1ccccc1[O-]	-3	3.9	/	/	/	0	-2
COc1ccc(S(=O)(=O)N(C)C)cc1NC(=O)Cc1cccs1	-65	-1.9	-11	4509	-2	15	1
CC(C)c1onc(C(=O)Nc2ccc3c(c2)OCO3)c1[N+](=O)[O-]	6	15	-5	5088	2	-5	-3
CCN(CC)C(=O)C1CCCN(C(=O)c2cc(COc3ccc4ncccc4c3)on2)C1 (stereo not given)	9	1.2	-1	5975	6	8	6
COc1cc2c(cc1OC)C(c1ccc(-c3ccc(Cl)c(Cl)c3)o1)=NCC2	66	1.3	-23	9585	5	14	9
COC(=O)c1nn(C23CC4CC(CC(C4)C2)C3)c2c1C(=O)N(c1ccc(Br)cc1)C2=O	-10	-7.5	-16	3435	-12	6	0
Cc1cccc(/C=C/c2onc(C)c2S(=O)(=O)N2CCC(C(=O)N3CCCCC3)CC2)c1	3	-3.5	-26	4584	-6	4	-6
Cc1ccc(-n2[nH]c(C)c(/C=N/Nc3ccc([N+](=O)[O-])cc3[N+](=O)[O-])c2=O)cc1	/	/	-1	2359	32	/	/
O=S(=O)(Nc1cccc(-c2nc3cccnc3s2)c1)c1ccc2c(c1)CCCC2	93*	16	-2	4908	6	9	-2
COCCN1Cc2cccc(C(=O)NCC3CCN(CC(C)C)C3)c2C1=O (stereo not given)	2	-0.2	-13	3064	8	-18	13
C=CCNc1nc(C(=O)OCC(=O)NCc2cccc(Cl)c2)cs1	-1	4.8	-12	3951	/	34*	77*
CCn1c(=O)n(CC)c2cc(NS(=O)(=O)c3ccccc3)ccc21	-3	1.8	2	5834	-2	10	1
COc1ccccc1S(=O)(=O)Cc1ccc(C(=O)NC2CCCCCC2)o1	-3	2.1	-5	5506	-1	8	8
CC(C)CCNC(=O)COc1cccc2c1OC(C)(C)C2	-3	-0.1	-2	4280	13	1	11
COc1cc2c(cc1OC)C(Nn1cnnc1)=NC1(CCCC1)C2	9	1.7	-1	/	-10	9	2
COC(=O)Cn1c(O)c(N=NC(=O)OC)c2ccccc21	2	7.9	-23	3519	-9	10	7

Some of the entries above, set out differently.
Compound: C=CCNc1nc(C(=O)OCC(=O)NCc2cccc(Cl)c2)cs1
  ugtP null kill = -1 | RN4220 kill = 4.8 | PrP 5UTR inh = -12 | Autofluor counter = 3951 | BJeLR lethal = / | Mtb hypoxia rep = 34* | Mtb hypoxia rep growth = 77*

Compound: CCn1c(=O)n(CC)c2cc(NS(=O)(=O)c3ccccc3)ccc21
  ugtP null kill = -3 | RN4220 kill = 1.8 | PrP 5UTR inh = 2 | Autofluor counter = 5834 | BJeLR lethal = -2 | Mtb hypoxia rep = 10 | Mtb hypoxia rep growth = 1

Compound: COc1ccccc1S(=O)(=O)Cc1ccc(C(=O)NC2CCCCCC2)o1
  ugtP null kill = -3 | RN4220 kill = 2.1 | PrP 5UTR inh = -5 | Autofluor counter = 5506 | BJeLR lethal = -1 | Mtb hypoxia rep = 8 | Mtb hypoxia rep growth = 8

Compound: CC(C)CCNC(=O)COc1cccc2c1OC(C)(C)C2
  ugtP null kill = -3 | RN4220 kill = -0.1 | PrP 5UTR inh = -2 | Autofluor counter = 4280 | BJeLR lethal = 13 | Mtb hypoxia rep = 1 | Mtb hypoxia rep growth = 11

Carrying on:
SMILES	ugtP null kill	RN4220 kill	PrP 5UTR inh	Autofluor counter	BJeLR lethal	Mtb hypoxia rep	Mtb hypoxia rep growth
CCOc1ccc(Cl)cc1S(=O)(=O)n1cnc2cc(C)c(C)cc21	-3	-5.9	-10	9314	-7	5	3
COCCNc1cnn(-c2ccccc2)c(=O)c1Cl	0	1.4	-7	4382	15	-5	5
O=S(=O)(CC(CN1CCCCC1)N1CCCCC1)c1ccc2ccccc2c1 (stereo not given)	9	-1.5	19	4934	11	10	9
O=C(CSc1nc2ccccc2c(=O)n1-c1ccccc1)N/N=C/C=C/c1ccccc1[N+](=O)[O-]	/	/	-32	4344	4	/	/
Cc1c(C(=O)O)nn(-c2ccccc2)c(=O)c1C#N	9	18	-19	6204	-2	-1	3
CSCC[C@H](NC(=O)OC(C)(C)C)c1nnc(SCC(=O)Nc2c(C)cccc2C)o1	-5	-2.3	-11	5403	/	/	/
CCN(CC)CCNc1nc(-c2ccccc2)c2c(c1C#N)CC(C)(C)OC2	-1	1.6	-23	2906	6	7	2
CSc1nnc2ccc(-c3cccs3)nn12	7	6.1	-17	3529	-2	-11	3
CN1C(=O)/C(=C2\SC(=S)N(C(CCC(=O)O)C(=O)O)C2=O)c2ccccc21 (stereo not given)	7	5.2	0	3171	1	/	/
Cc1ccc(NC(=O)C2CCCN(S(=O)(=O)c3ccc4[nH]c(=O)ccc4c3)C2)c(C)c1 (stereo not given)	-1	2.9	-7	5994	-8	/	/
CCN(C[C@H]1N[C@@](CC)(C(=O)OC)[C@H]2C(=O)N(C)C(=O)[C@@H]12)S(=O)(=O)c1ccc(-c2ccccc2)cc1	-2	1.7	-28	2938	/	-7	-5
CC(C)(C)NC(=O)C1N(c2cccnc2)C(=O)C2C(C(=O)Nc3ccccc3F)C3(C)C=CC21O3 (stereo not given)	10	5.4	-16	7587	-3	6	5
Cc1ccc(C(=O)N2CCCC(C(=O)c3cc(F)ccc3F)C2)s1 (stereo not given)	1	-2.0	-30	4309	9	22	18
O=C(CSc1nc2ccccc2c(=O)n1-c1ccccc1)N1CCN(CCO)CC1	1	7.2	-27	4090	-7	8	5
COc1ccc(Cn2nnnc2C(c2cc3cccc(C)c3[nH]c2=O)N2CCN(C)CC2)cc1 (stereo not given)	15	2.9	-8	3345	10	6	5
CC1=NN(C(N)=S)C(=O)C1N=Nc1ccc(F)cc1 (stereo not given)	0	4.5	-32	3273	23	12	3
O=C(OCc1nnc(-c2ccccc2)o1)c1cc2ccccc2cc1O	7	3.9	-12	4698	9	-1	2
Cc1cc(NC(=O)c2ccc(-c3ccc(F)c(Cl)c3)o2)no1	0	-0.3	-22	2632	-9	3	8
COc1cc(NS(=O)(=O)c2ccc(Nc3nc(-c4ccccn4)cs3)cc2)nc(OC)n1	90*	-3.1	-21	4526	2	-3	8
C=CCN1/C(=C(\C#N)C2=NS(=O)(=O)c3ccccc32)N(C)c2ccccc21	11	3.2	-5	16828*	-1	4	0
Oc1ccc(/C=N/NC(=S)NCC2CCCO2)cc1 (stereo not given)	/	/	16	4203	5	/	/
CCOC(=O)N1CCN(S(=O)(=O)c2ccc(C(=O)Nc3sc4c(c3C(N)=O)CCN(CC)C4)cc2)CC1	7	0.3	7	4510	-8	3	0
OC12CCCCC1C(c1ccc3c(c1)OCO3)N(Cc1ccccc1F)CC2 (stereo not given)	6	0.1	/	8254	2	9	0
Cc1cc(NS(=O)(=O)c2ccc(NC(=O)CCCOc3cccc(C)c3C)cc2)no1	-4	1.0	-16	?	3	5	7
O=C(NN=Cc1ccc([N+](=O)[O-])cc1)c1cc2ccccc2o1	4	6.1	/	/	/	14	8
O=C(O)CN1CCN(Cc2ccc(Cl)cc2)C1=O	23	5.5	1	2138	-8	13	0
CCCCc1nc(N2CCNCC2)c(C#N)c2c1CSC(C)(C)C2	-10	2.6	-15	8375	6	10	9
Cc1c(NS(=O)(=O)N2CCCCC2)c(=O)n(-c2ccccc2)n1C	1	-0.2	-20	16324*	7	11	-1
Cc1nc(NC(=O)COC(=O)CCc2ccccc2)c(Cl)cc1Cl	-6	0.0	1	/	/	1	1
CC(C)Cn1c2nc3ccccc3nc2c2c(=O)n(CCN3CCOCC3)cnc21	-1	3.2	-13	2461	-4	/	/
O=C(NC(=S)Nc1ccccc1N1CCCC1)c1ccccc1[N+](=O)[O-]	79	17	-3	2576	-3	6	2
CC(C)CCn1c(SCC(=O)NC2CCS(=O)(=O)C2)nc2cc(Cl)ccc2c1=O (stereo not given)	5	2.8	-14	?	-6	3	2
CCCCC(=O)Nc1ccc(C(=O)NN2C(=O)c3ccccc3C2=O)cc1	-2	6.1	/	11074	-20	-2	2
N#Cc1c(SCc2ccccc2)nc(N2CCOCC2)c2c1CCCC2	31	-3.4	2	4114	/	/	/
COc1ccc(NC(=S)NCCCn2ccnc2)cc1	8	4.7	-75	3165	-4	/	/
CCOc1ccc(C(=O)C(C)OC(=O)Cn2[nH]c(=O)c3ccccc3c2=O)cc1 (stereo not given)	17	7.6	-20	4454	0	11	-2
Cc1cc(C)nc(SCC(=O)NN=C/C=C/c2ccccc2)n1	-7	1.8	/	/	/	8	1
Cc1c(C(=O)NC2CCCC2)oc2ccccc12	-4	3.5	-29	2962	/	8	19
O=C(CSc1nccn(-c2ccc(Br)cc2)c1=O)NC1CCCC1	3	4.7	-20	/	-10	2	-1
COc1ccc(C2C(=O)c3ccccc3C2=O)cc1	1	3.0	-18	5953	14	-4	9
CC(=O)c1ccc(NC(=O)NC2CCCCCCC2)cc1	-8	2.4	-52	5735	/	/	/
CC(=O)NC12CC3CC(C1)CC(C(=O)N1CCN(S(=O)(=O)c4cccc([N+](=O)[O-])c4)CC1)(C3)C2	5	4.5	-11	3578	/	5	2
